# VACV mCherry inh – vaccinia inhibition (mCherry reporter) | Potency, µM (highest dose often 36.5 µM), without a hit: top-dose activity change, negative = inhibition, most hits filed as inhibitors | actives 0.63% (n = 310,000) | Vaccinia virus mCherry reporter infection, fluorescence; about a quarter of the inactives have no number | AID 720579; active = well fitted inhibition curve with a large enough effect; inconclusive = small, poorly fitted or top-dose-only effect; inactive = no such curve, though single readings can be large or run the other way; tested in A549 cells; also: nearly all actives have a fitted effect of over 35% in size; inactives centre near -10
# Vaccinia Venus – inhibitors of vaccinia virus (Venus reporter); Vaccinia virus Venus reporter expression, fluorescence; Potency, µM (titrated, usually from 36.5 µM), without a hit: at the top dose activity change, negative = inhibition, actives largely listed as inhibitors; actives 0.46% (n = 330,000); AID 720580; active means well fitted inhibition curve with a large enough effect; inconclusive means small, poorly fitted or top-dose-only effect; inactive means no such curve, though single readings can be large or run the other way; tested in A549 cells; also: nearly all actives have a fitted effect of over 30% in size; inactives centre near -10
# * marks the source's active call; other numbers are inactive results; i = inactive; ? = inconclusive; nt = no result given; & = joins results of further samples; [ ] = remark or other dose. % is scaled to controls: 0 for no effect and ±100 for the full control effect; potency is read from the fitted curve at half-maximal effect.
# Below each compound – Vaccinia Venus | VACV mCherry inh
FC(F)(F)c1ccc(/C=N/NC(=S)NC2CCCCC2)cc1
    -13% | -8%
CC(C)(CN1CCCCC1)NS(=O)(=O)c1ccc(Cl)cc1
    -1% | -14%
Cc1ccc(C)c(C(=O)COC(=O)CNS(=O)(=O)c2ccccc2)c1
    2% | i
COc1ccc(-c2nn(-c3ccccc3)cc2/C=C\C(=O)Nc2ccc(C(=O)O)cc2)cc1
    -5% | i
Cc1ccc(Cl)cc1N(CC(=O)Nc1cccc(N(C)S(C)(=O)=O)c1)S(C)(=O)=O
    -14% | -23%
COc1ccc2c(c1)NC(c1cc(Cl)cc(Cl)c1O)c1cccn1-2 (stereo not drawn)
    -7% | -20%
CCc1nnc(SCC(=O)N2CCCC(N3CCN(c4ccccc4C)CC3)C2)o1 (stereo not drawn)
    -17% | -1%
COc1cccc(C(=O)NCc2ccc3c(c2)OCO3)c1OC
    -11% | i
O=C(C1CCCN(S(=O)(=O)c2cccc3nsnc23)C1)N1CCC2(CC1)OCCO2 (stereo not drawn)
    -7% | -10%
CCOc1ccc(OCC)c(NC(=O)C2CCN(c3nnc(-n4cccc4)s3)CC2)c1
    -18% | -2%
Cc1cc(C(=O)Nc2ccon2)ccc1[N+](=O)[O-]
    -4%[7.34 µM] | -8%[7.34 µM]
COCCCN1C(=O)C(CC(=O)NCc2cccs2)CC(C(=O)N(C(C)C)C(C)C)=C1C (stereo not drawn)
    2% | i
CCOc1ccccc1NC(=O)C(OC(=O)c1ccccc1NS(=O)(=O)c1cccs1)c1ccccc1 (stereo not drawn)
    -19% | -17%
O=C1CCC(c2ccccc2)N1c1ccccc1 (stereo not drawn)
    -13% | -11%
CNC(=O)CSc1nc2ccccc2c(=O)n1CCc1ccccc1
    -5% | -15%
CCOc1ccc(NC(=O)c2c(C)nn(-c3ccc(F)cc3)c2-n2cccc2)cc1
    0% | -2%
Cc1cccc2c(N3CCCC3)nc(CNS(=O)(=O)c3ccccc3F)nc12
    -11% | -9%
COc1ccc2c(c1)c1c(c(=O)n(-c3ccc(OC)c(OC)c3)c(=O)n1Cc1ccccc1F)n2C
    0% | -9%
Clc1ccccc1N1CCN(c2ncnc3nc[nH]c23)CC1
    -14% | -5%
O=c1[nH]c(SCc2cccc(F)c2)nc2c1CCCC2
    -18% | -4%

# Single values from the list:
# `COCCCN1C(=O)C(CC(=O)NCc2cccs2)CC(C(=O)N(C(C)C)C(C)C)=C1C` (stereo not drawn) in Vaccinia Venus shows 2%
# `COc1cccc(C(=O)NCc2ccc3c(c2)OCO3)c1OC` in Vaccinia Venus shows -11%

# More structures.
# Below each compound – Vaccinia Venus | VACV mCherry inh
C[C@@]12C(=O)N(Cc3ccco3)CC(=O)N1[C@H]1c3ccccc3OC[C@@H]1[C@@H]2c1ccccc1
    -12% | -13%
COc1ccc(N2CC(NC(=O)/C=C\c3ccccc3)CC2=O)cc1OC (stereo not drawn)
    3% | 0%
O=C(CCN1C(=O)/C(=C\c2cccs2)SC1=S)Nc1nccs1
    ? | -2%
CC1(C)CN(c2cccc(-c3ccnc4ncnn34)c2)C1=O
    -13% | -3%
CCOC(=O)N1CCC(N2C(=O)c3ccccc3C2Nc2ccc(S(=O)(=O)N(CC)CC)cc2)CC1 (stereo not drawn)
    -4% | -18%
Cc1ccc2cc(C#N)c(NCCNC(=O)C3CCC3)nc2c1C
    -14% | -9%
COCCCn1c(=O)/c(=C\c2ccccc2OC(F)F)s/c1=C(/C#N)C(=O)N1CCOCC1
    -10% | -12%
Cc1ccsc1C(=O)OCC(=O)NCCC1=CCCCC1
    -2% | -19%
C[C@@]12CCC(OS(=O)(=O)O)C[C@@H]1CCC1C2CC[C@]2(C)C(=O)CCC12 (stereo partly drawn)
    -3% | -1%
CCN(CC)C(=O)CNc1ccc(C(F)(F)F)cc1[N+](=O)[O-]
    -15% | -21%
O=C(c1cccs1)C1CCCN(Cc2nc(Cc3ccccc3F)no2)C1 (stereo not drawn)
    -10% | -10%
C=CC[C@H](CC(=O)N(CCO)Cc1ccccc1)C(=O)N[C@@H](COC(=O)[C@H](CC=C)CC(=O)OC(C)(C)C)Cc1c[nH]c2ccccc12
    ? | ?
O=C(CC(=O)c1cccs1)c1ccncc1
    1% | i
CC(=O)N1c2ccc(S(=O)(=O)N3CCN(c4cc(Cl)ccc4C)CC3)cc2CC1C (stereo not drawn)
    -10% | -21%
COc1c2c(nc3occc13)C(CC=C(C)C)(OC)C(OC(C)=O)CC2 (stereo not drawn)
    -19% | -27%
CCNS(=O)(=O)c1ccc(CCC(N)=O)cc1
    -10% | -9%
COc1cccc(CN(C)CC(=O)NNC(=O)c2ccc(Cl)cc2)c1
    -25% | i
CCOC(=O)c1sc2ccccc2c1S(=O)(=O)Nc1ccc(CC)cc1
    -27% | i
COc1ccc(Cl)cc1NC(=O)CCS(=O)(=O)c1cc2c(cc1C)NC(=O)CO2
    8% | 4%
COc1cc(/C=C/C(=O)OCC(=O)Nc2ccc3c(c2)OCCO3)ccc1O
    -20% | ?
COC(=O)C1(C)NC(c2cccs2)C2C(=O)N(c3ccccc3F)C(=O)C21 (stereo not drawn)
    -1% | -4%
O=C(CN1CCN(c2ccc(Cl)cc2)CC1)c1ccc2c(c1)OCO2
    -15% | nt
CN1C(=O)c2ccc(NC(=O)c3cccc4ccccc34)cc2C1=O
    -6% | -11%
CCOc1ncccc1C(=O)OCc1cccc([N+](=O)[O-])c1
    -17% | -23%
Cc1cccc(NC(=O)C2CCCN(C(=O)Nc3ccc(F)cc3)C2)c1 (stereo not drawn)
    -16% | -13%
CCC1CCCCN1Cc1ccc(OC)c(C)c1 (stereo not drawn)
    -4% | -7%
Cc1cccc(/N=C/c2c(O)cc(C)oc2=O)n1
    4% | i[1.46 µM]
COc1ccc(N2CCN(C(=O)CN(c3ccc(OC)cc3)S(=O)(=O)c3ccccc3)CC2)cc1
    -14% | -11%
CCC(=O)NNC(=S)NC(=O)c1ccc(C)cc1
    -16% | -15%
CC(=O)NS(=O)(=O)c1ccc(NC(=O)c2oc3c(Cl)cccc3c2C)cc1
    -4% | -1%
CCCNC(=O)C1CCC(CNS(=O)(=O)c2ccc3c(c2)N(C(C)=O)CCO3)CC1 (stereo not drawn)
    -1% | -9%
CN(C)CCNC(=O)c1ccccc1-c1ccccc1
    -1% | -7%
CC1Cc2nc(SCC(=O)Nc3nccs3)n(C)c(=O)c2S1 (stereo not drawn)
    ? | i
Cc1ccnc(NC(=O)CCC(=O)N(CC(=O)NC(C)(C)C)Cc2ccc3c(c2)OCO3)c1
    -16% | -3%
CC(=O)C1CCC2(O)C3CCC4=CC(=O)CCC4(C)C3CCC12C (stereo not drawn)
    -6% | 0%
O=C(NC1CC1)c1cc2cc(Br)ccc2s1
    -10% | -13%
O=C(NCCc1ccccc1)c1ccc2c(c1)N(Cc1ccccc1F)C(=O)c1ccccc1S2=O (stereo not drawn)
    -11% | -19%
CCOC(=O)C1(C)CCCN(C(=O)c2ccccc2F)C1 (stereo not drawn)
    -4% | -5%
O=C1CCCCC(=O)[C@H](O)C[C@H](c2ccccc2)O1
    8% | 0%
COc1cccc(CNC(=O)c2c(C)nn(-c3cccc(C)c3)c2-n2cccc2)c1
    -18% | -9%
COc1ccccc1CNC(=O)c1nn(-c2ccc(C)cc2)c(=O)c2c1c1ccccc1n2C
    -13% | -17%
C=CC[C@@H](CC(=O)N[C@@H](CO)Cc1ccccc1)C(=O)N[C@H](COC(=O)[C@@H](CC=C)Cc1ccc(F)cc1)C(C)(C)C
    -30% | -11%
CN(N=O)c1ccc(C=C2C=Cc3ccccc32)cc1
    -29% | -6%
Cc1cc(Oc2ccc3ccccc3c2)nc(SCC(=O)c2ccccc2)n1
    -25% | -9%
CC1Sc2ccc(C(=O)Nc3ccc(S(=O)(=O)N(C)C)cc3)cc2NC1=O (stereo not drawn)
    -13% | -14%
C/C(=N\Nc1ccc(S(=O)(=O)N2CCOCC2)cc1[N+](=O)[O-])C(C)C
    -1% | -8%
Nc1nc(COC(=O)CCC(=O)c2ccccc2)nc(Nc2ccccc2)n1
    -6% | i
COC(=O)c1ccc(C(=S)N2CCOCC2)cc1
    -1% | -13%
O=C(NC1CC(=O)N(c2ccccc2)C1)c1ccc(S(=O)(=O)N2CCOCC2)cc1 (stereo not drawn)
    -7%[7.34 µM] | -7%[7.34 µM]
CCC1=C2CC[C@H]3C(=O)N(c4ccccc4)C(=O)[C@H]3[C@H]2[C@@]2(C)C(=NCC(=O)OC)OC(=O)N2C1=O
    -4% | i
CC(NC(=S)N1CCOCC1)c1ccccc1 (stereo not drawn)
    -8% | -14%
CNc1c(N=Cc2cccnc2)c(=O)n(C)c(=O)n1C
    -5% | -14%
Nc1c(C(=O)NC2CC2)sc2nc3c(c(-c4ccco4)c12)CC/C3=C/c1ccco1
    9% | -27%
CCOc1c2ccc(C(=O)NCc3ccc(OC(F)(F)F)cc3)cc2nn1CC
    -4% | i
CC(NC(=O)c1cc2ccccc2oc1=O)c1ccccc1 (stereo not drawn)
    -14% | i
CC1=C(C(=O)N2CCCCCC2)CC(CC(=O)NCCCCc2ccccc2)C(=O)N1Cc1ccccc1 (stereo not drawn)
    -11% | i
CCOC(=O)[C@H]1[C@H]2COc3ccc(Cl)cc3[C@@H]2N2C(=O)c3cc(F)ccc3NC(=O)[C@@]12C
    ? | i
Cc1ccc(NC(=O)CCCn2c(=O)c3cccn3c3ccccc32)c(Cl)c1
    -9% | -6%
O=C(O)Cn1c(=O)c2c3c(sc2n(Cc2ccccc2F)c1=O)CCCC3
    -9% | i
COc1cccc(C(=O)Nc2nnc(-c3cccs3)s2)c1
    1% | -6%

# Additional records follow:
# Below each compound – Vaccinia Venus | VACV mCherry inh
O=c1oc(CCCO)cc2ccc(C#CC3(O)CCCCC3)cc12
    -24% | i
O=C(c1ccccc1F)N1CCN(C2CCC(c3ccccc3)CC2)CC1 (stereo not drawn)
    -14% | -10%
CCC(=O)c1ccc(OCC(O)CN2CCN(c3cccc(C(F)(F)F)c3)CC2)cc1 (stereo not drawn)
    ? | -5%
CCC(NC(=O)NCCCn1ccnc1)(C(F)(F)F)C(F)(F)F
    -13% | nt
CCOP(=O)(OCC)Oc1cc(C)c(N(C)C)c(C)c1
    -6% | -16%
O=S(=O)(c1ccc(F)c(Cl)c1)N1CCN(C/C=C/c2ccccc2)CC1
    -16% | -13%
COc1cc(C(=O)Nc2nccs2)cc(OC)c1OC
    0% | -14%
CCOP(=O)(OCC)C(C)(C)NC(=O)Nc1ccc(Cl)c(Cl)c1
    -24% | -19%
Cn1cc(S(=O)(=O)N2CCOCC2)cc1C(=O)NCc1ccccc1Cl
    2% | -11%
CCC(=O)N1CCCC(C)(C(=O)Nc2nccc3ccccc23)C1 (stereo not drawn)
    -5% | 11%
C=CCNC(=O)NC(=O)COC(=O)/C(C#N)=C/c1ccc(OC)cc1
    -3% | i
Cc1ccccc1Cn1cc(/C=N/n2cnnc2)c2ccccc21
    ? | ?
O=C(Nc1cc(S(=O)(=O)Nc2ccccc2F)ccc1Cl)c1ccc(F)cc1F
    9% | i
CC(C)(C)c1cc(C(F)(F)F)c(C#N)c(=O)[nH]1
    -16% | -1%
COc1ccc(CNC(=O)N2CCN(c3ccc(F)cc3)CC2)cc1Cl
    -13% | -8%
CCn1cc(S(=O)(=O)N2CCN(Cc3cccc(Cl)c3)CC2)cn1
    4% | 9%
CC(=O)N1CCCc2ccc(NS(=O)(=O)c3ccc(C)c(C)c3)cc21
    -20%&-24% | -17%&-26%
COc1ccc(C(=O)N/N=C(\C)CC(=O)Nc2ccc3ccccc3c2)c(OC)c1
    -23% | -13%
COc1cc(CNCCN(C)C)ccc1OCc1c(F)cccc1Cl
    -15% | i
CCc1ccc(NC(=O)CSc2nc3ccsc3c(=O)n2CCCCCC(=O)O)cc1
    -7% | -5%
COC(=O)C1=C(c2ccc(F)cc2OCc2ccccc2)C[C@@H]2CC[C@H]1N2C(=O)NCc1cccc(C(F)(F)F)c1
    ? | i
O=C(O)c1cc2cc(Oc3ccccc3)ccc2[nH]1
    -8% | i
CCOC(=O)c1ccc(NC(=O)c2nc(SCc3ccccc3F)ncc2Cl)cc1
    -3% | -9%
Cc1ccc2nc(-c3ccccn3)c(NC3CCCC3)n2c1
    -28% | 13µM*
O=C(NCc1ccc2c(c1)OCO2)c1ccc2c(c1)N(Cc1c(F)cccc1Cl)C(=O)CS2
    -18% | -3%
Cc1ccc(S(=O)(=O)/C(=C/Cl)NC(=O)c2ccccc2)cc1
    ? | ?
CC(C)(C)C(=O)Nc1nnc(SCC(=O)NCc2ccco2)s1
    -9% | -4%
COc1ccc(N2CCN(S(=O)(=O)c3c(C(=O)N4CCOCC4)c(C)n(C)c3C)CC2)cc1
    -12%[7.34 µM] | i[7.34 µM]
CC(C)C[C@H](NC(=O)c1nc[nH]c1C(=O)N1CCC(C)CC1)C(=O)OC(C)(C)C
    -11% | -15%
CCc1ccc([C@H]2C(C(=O)O)=C[C@@H](CC3CCCC3)N2S(=O)(=O)c2ccc(C)cc2)cc1
    -19% | -14%
CCCOc1ccc(C2C(C(=O)c3ccco3)=C(O)C(=O)N2CCCn2ccnc2)cc1OC (stereo not drawn)
    -6% | i
CCOC(=O)c1sc(NCC2CCCO2)nc1C (stereo not drawn)
    -7% | nt
CCOc1cc(-c2c(C#N)c(N)nc3c2CCCC3)ccc1O
    -20% | nt

# Source: PubChem (National Center for Advancing Translational Sciences (NCATS))

# Outcome played no part in choosing rows; overall some 0.86% were active at least once.
